miR-21 reporter: miR-21 reporter, rising signal; HeLa miR-21 FLuc reporter, luciferase, 48 h; Potency, µM (series often up to 38.3 µM), for inactives: at the top dose reporter change, positive = more light; 340,000 tested, under 10 active; AID 2288; active = well fitted rising curve with a large enough effect; inconclusive = small, poorly fitted or top-dose-only effect; inactive = no such curve, though single readings can be large or run the other way;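 note: % of control where 0% means no effect; miR-21 action dims this reporter so a rising signal means less miR-21 action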
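Using DMEM plus 10% FBS, HeLa miR-21-FLuc cells are incubated with test compounds (final up to about 40uM) for 48 hours; firefly luciferase signal is then imaged following reagent-mediated lysis.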
Rango release inh: inhibitors of RanGTP-induced Rango-importin beta complex dissociation; O95149+P62826; Biochemical FRET Rango-importin beta, RanGTP-induced dissociation; Potency, µM (titrated, usually from 46.1 µM), for inactives: at the top dose activity change, negative = inhibition; actives 0.071% (n = 340,000); AID 540253; active means falling FRET ratio curve, often poorly fitted, with flat reads before Ran was added; inconclusive means other falling curves, or compound fluorescence or quenching; inactive means flat or rising ratio curve;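 note: potency is the fitted concentration of half-maximal effect; % of control where 0% means no effect; nearly all actives have a fitted effect of over 45% in size; -100% = wells without RanGTP and RCC1; the record marks most hits as doubtful in a second field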
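Two FRET readings bracket the reaction: one 5 min after compound meets Rango–importin beta, another 45 min after RanGTP-RCC1 (0.6 uM Ran, 0.2 uM RCC1, 2 mM GTP) is added. Only the second defines inhibition.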
Rango complex inh: inhibitors of Rango-importin beta complex formation; Q14974; Rango CFP/YFP FRET sensor + importin beta, 45 min; Potency, µM (highest dose often 92.2 µM), without a hit: at the top dose inhibition of complex formation; actives 0.031% (n = 340,000); AID 540263; active = rising FRET ratio curve, often small or poorly fitted; inconclusive = mostly compound fluorescence or quenching in the first reads; inactive = flat curves in all reads;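 note: potency is the fitted concentration of half-maximal effect; 0% = DMSO wells and 100% = buffer wells lacking importin beta; nearly all actives have a fitted effect of over 15% in size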
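Inhibition scored from the CFP 486 nm/YFP 530 nm FRET ratio 45 min after adding 0.125 microM importin beta to 50 nM Rango biosensor preincubated 5 min with compound (room temperature, PBS with DTT, Tween-20, BSA). No-importin wells as positive control.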
GLA inh pH 4.5: blocks human alpha-galactosidase A at pH 4.5; P06280; purified enzyme, 4-MU-alpha-Gal fluorescence, pH 4.5; activity change, negative = inhibition, % at 105 µM; 230,000 tested, under 10 active; AID 1467; inconclusive = small, poorly fitted or top-dose-only inhibition, or a rising curve; inactive = flat fitted curve, though single readings scatter; no compound was filed as active;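 note: 0% = full activity with enzyme and -100% = basal without enzyme; dose as in the result columns while the protocol names 77 µM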
Target sequence (P06280 whole entry, looked up): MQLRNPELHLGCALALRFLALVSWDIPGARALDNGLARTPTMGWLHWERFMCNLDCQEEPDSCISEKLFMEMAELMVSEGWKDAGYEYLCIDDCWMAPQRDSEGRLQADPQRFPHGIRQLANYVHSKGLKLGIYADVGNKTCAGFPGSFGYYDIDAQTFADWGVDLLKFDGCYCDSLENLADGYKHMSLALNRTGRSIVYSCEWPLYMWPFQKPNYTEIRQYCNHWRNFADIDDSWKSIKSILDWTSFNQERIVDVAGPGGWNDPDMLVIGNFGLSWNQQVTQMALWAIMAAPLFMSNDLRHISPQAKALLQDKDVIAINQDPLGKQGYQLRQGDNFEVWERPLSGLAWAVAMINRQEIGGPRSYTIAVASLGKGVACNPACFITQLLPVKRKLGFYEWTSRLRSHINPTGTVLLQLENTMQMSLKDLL
Starred values were filed as active, the others as inactive; u = inconclusive; x = no result given; & = joins results of further samples; [ ] = remark or other dose. These rows are one share of the data; count on the stated rates, not on these rows.

SMILES | miR-21 reporter | Rango release inh | Rango complex inh | GLA inh pH 4.5
CCOc1ccc2[nH]c(=O)c(CN(CCOC)C(=O)N3CCOCC3)cc2c1 | -9% | 1% | -2.4% | 3
COc1ccc(S(=O)(=O)N2CCC(C(=O)N3CCc4ccccc4C3)CC2)cc1C | 1% | -23% | 3.0% | 0
COC(=O)c1ccc(S(=O)(=O)NCc2cccc(OC)c2)n1C | 1% | -6% | 1.2% | -6
CC(C)C(=O)N=c1sc2cc(F)cc(F)c2n1C | -17% | -20% | 1.2% | -1
CC(C)c1ccccc1-n1c(SCC(=O)N2CCN(c3ccccc3)CC2)nnc1-c1cccnc1 | 10% | 0% | -0.5% | 3
O=C(OC1CCCCC1=O)c1cccc(S(=O)(=O)N2CCCCC2)c1 (stereo not given) | x | -17% | -0.4% | x
NC(=O)CN(Cc1ccccc1)S(=O)(=O)c1ccc2c(c1)OCCO2 | 2% | -11% | 1.8% | x
Cc1ccc2c(c1)CCCN2C(=O)CCc1nc2ccccc2c(=O)[nH]1 | x | -16% | 10% | x
O=C(CCSc1nnc(-c2ccccc2)o1)N1CCOCC1 | -19% | 2% | -1.6% | -6
Cc1[nH][nH]c(=O)c1N=Nc1ccc(Br)c(Cl)c1 | x | 0% | 5.1% | x
Cc1ccc(C)c(NC(=O)C2(C)CC3c4ccccc4C2c2ccccc23)c1 (stereo not given) | 0% | -11% | -0.4% | 10
CCO[C@H]1OC(C(=O)N2CCN(Cc3ccccc3)CC2)=C[C@@H](c2ccccc2)[C@@H]1CCCO | 6% | 7% | -3.0% | 5
CCOC(=O)C1=C(C)NC(=O)NC1c1cccnc1 (stereo not given) | -1% | -3% | -0.3% | -2
CCCC1CCC(C(=O)n2nc(N)c3cc4ccc(OC)cc4nc32)CC1 (stereo not given) | 5% | -3% | -12% | -4
O=C1/C(=C\c2ccc(O)cc2)SC(=S)N1c1cccnc1 | -2% | u | u | -16
Cc1ccc(-c2nc(CSCC(=O)NCCN3CCN(Cc4ccccc4)CC3)c(C)o2)cc1 | u | -3% | 2.6% | 1
Cc1ccoc1C(=O)Nc1ccc(CC(=O)O)cc1 | u | 23% | -2.2% | 7
CCCn1c(SCC(=O)Nc2cccnc2Cl)n[nH]c1=O | x | -19% | -2.0% | x
CC(=O)c1ccc(C(=O)N2CCC(CO)(Cc3cccc(C(F)(F)F)c3)CC2)cc1 | 16% | 11% | 0.1% | -9
CC(C)=CCc1c(O)cc(O)c2c(=O)c(O[C@@H]3O[C@@H](C)[C@H](O)[C@@H](O)[C@H]3O)c(-c3ccc(O)cc3)oc12 | x | 1% | 5.5% | x
Cc1cccc(NC(=O)CSc2nnc(CCCCCNC(=O)OC(C)(C)C)o2)c1C | 7% | -16% | 2.3% | -3
CC(CN(C)Cc1ccccc1)OC(=O)c1ccccc1F (stereo not given) | -6% | u | 0.5% | 1
O=C(NN=C1c2ccccc2-c2ccccc21)c1ccccn1 | -21% | -18% | u | -24
CC(=O)c1ccc(OCCCC(=O)NC(C)c2ccc(S(N)(=O)=O)cc2)cc1 (stereo not given) | -2% | 12% | 8.0% | 10
CC1CCCCC1NC(=O)c1cc2c(s1)CS(=O)(=O)C2 (stereo not given) | -1% | -12% | -1.7% | -4

Following part.
SMILES | miR-21 reporter | Rango release inh | Rango complex inh | GLA inh pH 4.5
Cc1cccc(/C=N/NC(=O)Cn2nc(C)cc2C)n1 | 0% | -18% | -4.1% | -8
COC(=O)C(F)(F)Sc1c(C)[nH]c2ccccc12 | -8% | -8% | 0.0% | -7
CC1CCCC(NC(=O)COC(=O)c2ccc3ccccc3n2)C1C (stereo not given) | -2% | 6% | -0.1% | -4
CC(C)NC(=O)N(C)C[C@H]1Oc2c(NC(=O)c3ccc(-c4nccs4)cc3)cccc2C(=O)N([C@@H](C)CO)C[C@H]1C | x | -8% | -0.8% | x
O=C(Cn1cnc2ccccc2c1=O)Nc1ccc2c(c1)OCCO2 | -42% | 32% | 11% | 6
CCC(C)Sc1nc2ccccc2n1CC(=O)O (stereo not given) | -3% | 5% | -0.6% | 8
COCCN(C(=O)Cc1cccs1)C(C(=O)NCc1ccc(OC)cc1)c1ccccc1 (stereo not given) | 13% | -1% | -3.9% | -1
CCOC(=O)C(CCCOc1ccc(C)cc1)C(=O)OCC | 0% | 12% | 1.5% | -3
CN(C)CCCNC(=O)C1(O)c2cc(Br)ccc2NC(=O)N1c1ccc(Cl)cc1 (stereo not given) | -1% | -20% | -0.4% | x
CC(NCc1ccc([N+](=O)[O-])cc1)C1COc2ccccc2O1 (stereo not given) | -12% | -1% | 0.4% | x
O=c1sc2ccccc2n1CCOc1ccccc1 | -52% | 1% | 0.3% | -4
CC(C)CCN1C(=O)c2ccc(C(=O)OCC(=O)N(CC(C)C)C3CCS(=O)(=O)C3)cc2C1=O (stereo not given) | x | -6% | u | x
CC(C)(C)NC(=O)C(OC(=O)Cn1nnc(-c2ccc(F)cc2)n1)c1ccncc1 (stereo not given) | -2% | 0% | 2.0% | 1
O=C(c1cc(Cl)ccc1Cl)N1CCc2ccccc21 | 0% | -8% | 3.5% | x
Cc1ccc(S(=O)(=O)/N=C2\C=C(NS(=O)(=O)c3ccccc3)C(=O)c3ccccc32)cc1 | x | 17% | -0.2% | x
CC(=O)Nc1ccc(S(=O)(=O)N2CCCC2C(=O)O)cc1 (stereo not given) | -3% | 1% | 0.9% | 1
CCN1C(=O)c2ccc(C(=O)Nc3cccc(C(=O)O)c3)cc2C1=O | -9% | 24% | 2.1% | x
CCOC(=O)Cc1cc(=O)n2[nH]c(C)c(-c3ccccc3)c2n1 | -1% | 7% | -2.4% | 3
Cc1cc(=O)n2ncnc2n1COCCO | -1% | 9% | 0.4% | -4
CCS(=O)(=O)N1N=C(c2cccc(NS(C)(=O)=O)c2)CC1c1ccc(C)cc1 (stereo not given) | -5% | -26% | u | 6
COc1cccc(C(=O)OCCCN(C)C)c1 | -3% | 2% | 0.0% | -6
O=S(=O)(c1ccc(S(=O)(=O)N(Cc2ccccc2)Cc2ccco2)cc1)N1CCCC1 | x | -3% | 0.0% | x
CCCCCN(C(=O)CCC(=O)OCC(=O)N1CCCCC1CC)c1c(N)n(CCCC)c(=O)[nH]c1=O (stereo not given) | x | -4% | -4.1% | x
Cc1ccc(C(=O)NC(C)c2ccc(C)c(C)c2)s1 (stereo not given) | x | -5% | 0.8% | x
COC(=O)C1=C(O)/C(=C\c2ccc(OCC(=O)Nc3ccc(OC)cc3)cc2)N=C1C | 1% | u | u | x

Gathered by group, the compounds so far containing a tert-butyl group.
SMILES | miR-21 reporter | Rango release inh | Rango complex inh | GLA inh pH 4.5
Cc1cccc(NC(=O)CSc2nnc(CCCCCNC(=O)OC(C)(C)C)o2)c1C | 7% | -16% | 2.3% | -3
CC(C)(C)NC(=O)C(OC(=O)Cn1nnc(-c2ccc(F)cc2)n1)c1ccncc1 (stereo not given) | -2% | 0% | 2.0% | 1

Carrying on:
SMILES | miR-21 reporter | Rango release inh | Rango complex inh | GLA inh pH 4.5
COc1ccc(C2NN=C(c3c[nH]c4ccccc34)C2O)cc1 (stereo not given) | -28% | -29% | u | x
CC1CCN(c2ccc(NC(=O)c3ccc(Br)o3)cc2)CC1 | -63% | -2% | 2.0% | x
CC(C(=O)NCCc1nc2ccccc2[nH]1)n1cc([N+](=O)[O-])cn1 (stereo not given) | 1% | -13% | 0.5% | 5[21.1 µM]
C[C@H](O)[C@@H]1C(=O)N2CCc3ccc(N4CCOCC4)cc3[C@@H]2C[C@@H]1N(C)C(=O)Nc1ccccc1 | x | -16% | -1.2% | x
Cc1cc(NC(=O)NC(=O)c2ccccc2F)no1 | -36% | -10% | 1.1% | x
CCOC(=O)c1c(NC(=O)c2c(C(=O)O)cccc2[N+](=O)[O-])sc(C)c1C | 3% | -11% | 0.9% | 2
O=C(c1cc(F)ccc1F)C1CCCN(C(=O)c2ccc(F)cc2Cl)C1 (stereo not given) | 16% | -14% | 2.0% | 7
C[C@@H]1C=C(C(=O)NC2CC2)O[C@H](OCc2ccc(CO)cc2)C1 | -18% | 7% | 2.2% | -3
COc1cc2oc(=O)cc(-c3ccc(-c4ccc(OC(F)(F)F)cc4)cc3)c2c(OC)c1OC | x | 27% | 0.4% | -7
Cc1nn(Cc2ccc(Cl)c(Cl)c2)c(C)c1NC(=O)c1cn(-c2ccccc2)nc1-c1ccccc1 | -3% | -1% | -2.6% | -23
CC[C@@H]1C(c2ccccc2)=NN(c2ccccc2)[C@H]1C(=O)N1CCOC1=O | x | u | u | -24
COc1ccc(C(=O)NCC(c2cccnc2)N2CCN(c3ccc(F)cc3)CC2)cc1OC (stereo not given) | -11% | 0% | 2.1% | -2
O=C(CN1CCN(CCN2C(=O)c3cccc4cccc(c34)C2=O)CC1)c1ccc(Cl)cc1 | -7% | x | x | 4
COc1ccc(/C=C/C(=O)Nc2ccc(-c3nnc4n3CCCCC4)cc2)c(OC)c1 | -11% | 4% | -1.0% | -10
CCC(c1nnc(SCC(=O)Nc2ccc(C(N)=O)cc2)n1Cc1ccccc1)N(C)C (stereo not given) | -3% | 9% | 0.3% | x
COc1cc(CC(=O)NNC(=O)c2cc(C)oc2C)cc(OC)c1OC | -3% | -1% | 4.3% | 0
CC(C)C(NC(=O)c1ccco1)C(=O)OCC(=O)c1ccccc1 (stereo not given) | -9% | -15% | -2.0% | x
COc1oc(-c2ccccc2)nc1C(F)(F)F | -3% | -16% | -1.7% | 9
COc1cc(/C=C2/C(=O)N(c3ccccc3)N=C2C)ccc1OS(=O)(=O)c1ccccc1 | -9% | x | x | -5
COc1cc(-c2nnc(COC(=O)c3ccc(C)o3)o2)cc(OC)c1OC | x | 10% | -1.0% | x
Cc1ccc(-c2csc(Cc3nc(-c4ccc5c(c4)CCC(=O)N5)cs3)n2)cc1 | -16% | -13% | 7.7% | x
O=C(NCCOc1cccc2cccnc12)c1cccs1 | -33% | -17% | -3.2% | -2
C/C(=N\NC(=O)c1ccc(F)cc1)c1ccc(NC(=O)Cc2ccccc2)cc1 | -38% | 3% | -1.9% | x
CCC(C)N1CCCC1C(=O)Nc1c(C)cc(C)cc1C (stereo not given) | -10% | -9% | 0.7% | -2
COC(=O)CCC(=O)OC1(C)C(=O)C=C2C=C(C3CC3)N(C3CCCCC3)C=C2C1=O (stereo not given) | 1% | -12% | -7.6% | 6&-10

(cont.)
SMILES | miR-21 reporter | Rango release inh | Rango complex inh | GLA inh pH 4.5
COC(=O)C1=C(SC)N(c2ccc(OC)cc2)C(c2ccccc2)CC1=O (stereo not given) | -1% | -3% | 3.2% | 1
COc1ccc(S(=O)(=O)NCC2CCCN(Cc3cccc(C(C)=O)c3)C2)cc1 (stereo not given) | -6% | -10% | -0.8% | x
COc1cc(-c2noc(C)c2C(=O)NCCO)cc(OC)c1OC | 1% | 16% | -0.4% | x
COC(=O)c1cccc(Nc2ncnc3sccc23)c1 | -7% | 8% | u | -1
CCOCCn1c(COc2ccc(C)cc2)nc2ccccc21 | -58% | 3% | -0.1% | -7
O=C(N/N=C/c1cc(Br)cc(Cl)c1O)c1ccc2c(c1)OCO2 | x | u | u | x
O=C(/C=C/c1ccccc1Br)c1ccc2c(c1)OCO2 | -18% | -11% | -2.8% | x
CNc1ccc(C(=O)OCC(=O)NC(=O)NC2CCCCC2)cc1[N+](=O)[O-] | x | 6% | 5.9% | x
COc1ccccc1OCCCc1c(C)n[nH]c1C | -6% | 2% | -2.9% | 6
CC1(C)CC(=O)C=C(Nc2ccc(O)c(C(=O)O)c2)C1 | -3% | u | u | x

Complete entries as entered above. Values in the order: miR-21 reporter, Rango release inh, Rango complex inh, GLA inh pH 4.5
CC(C)c1ccccc1-n1c(SCC(=O)N2CCN(c3ccccc3)CC2)nnc1-c1cccnc1 is listed with 10%, 0%, -0.5%, 3
COC(=O)c1cccc(Nc2ncnc3sccc23)c1 is listed with -7%, 8%, u, -1
O=C(CN1CCN(CCN2C(=O)c3cccc4cccc(c34)C2=O)CC1)c1ccc(Cl)cc1 is listed with -7%, x, x, 4

Compound activity deposited in PubChem by National Center for Advancing Translational Sciences (NCATS).
